From PubChem BioAssay
Resorufin autofl: compound fluoresces in the resorufin spectral region. Compound fluorescence, resorufin region 547/598 nm, buffer; hits give high values. hit rate 0.04% among 59,000. max dye-equivalent concentration, M; active = above 10 nM dye equivalent; inconclusive = 1 to 10 nM; inactive = 1 nM or less; a few of its hits are not listed in these tables; further: highest value over a series up to 38 µM
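Read-out: intrinsic compound fluorescence at ex 547/em 598 nm after 15 min at RT in pH 8.0 Tris (100 mM). Values expressed as resorufin-equivalent concentration from per-plate standard series.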
TSHR agonist: TSH receptor (human) agonism | AID 926 | HEK293-CNG-TSHR cells (CNG channel as cAMP sensor), membrane potential dye, cAMP | hit rate 0.48% among 73,000 | P16473 | Potency, µM (doses to about 57.1 µM), for the others: at the highest dose activation, actives largely listed as activators; active = well fitted activation curve of enough size with the parental cells flat; inconclusive = any curve in the parental cells; inactive = parental cells flat and receptor cells flat or falling; further: potency means the concentration at half of the fitted maximal effect; % of control where 0% means no effect; weak receptor curves with flat parental cells got no call and are not listed
Target sequence (P16473 whole entry, looked up): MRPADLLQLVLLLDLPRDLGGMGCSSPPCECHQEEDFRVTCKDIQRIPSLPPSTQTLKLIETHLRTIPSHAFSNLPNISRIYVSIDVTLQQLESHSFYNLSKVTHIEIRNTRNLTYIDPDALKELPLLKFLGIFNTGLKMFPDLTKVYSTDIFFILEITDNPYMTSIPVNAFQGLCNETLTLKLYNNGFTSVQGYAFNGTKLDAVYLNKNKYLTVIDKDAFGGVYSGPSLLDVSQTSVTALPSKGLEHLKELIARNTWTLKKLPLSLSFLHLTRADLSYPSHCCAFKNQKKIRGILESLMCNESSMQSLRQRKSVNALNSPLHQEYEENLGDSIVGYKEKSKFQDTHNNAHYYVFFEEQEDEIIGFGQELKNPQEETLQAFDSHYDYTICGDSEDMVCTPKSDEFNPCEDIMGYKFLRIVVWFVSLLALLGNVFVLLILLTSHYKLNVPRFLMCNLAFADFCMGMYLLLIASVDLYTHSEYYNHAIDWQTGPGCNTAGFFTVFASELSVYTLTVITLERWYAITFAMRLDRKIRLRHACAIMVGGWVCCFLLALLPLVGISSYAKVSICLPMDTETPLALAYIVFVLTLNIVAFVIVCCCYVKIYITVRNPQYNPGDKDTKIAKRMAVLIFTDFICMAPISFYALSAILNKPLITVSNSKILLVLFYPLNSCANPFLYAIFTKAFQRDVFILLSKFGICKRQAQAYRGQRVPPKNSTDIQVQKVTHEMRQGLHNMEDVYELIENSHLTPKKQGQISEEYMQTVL
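HEK 293 cells stably expressing TSHR and a modified CNG channel, with CNG-only parental cells as counterscreen, were preloaded 60 min at room temperature with membrane potential dye containing 100 uM RO 20-1724. Compound exposure was 30 min, and depolarization was read as fluorescence at 590 nm.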
A488 autofl: compound autofluorescence in A488 spectral region; hit rate 0.1% among 59,000; AID 591; max dye equivalency, M; compound autofluorescence, A488 spectral region, dye equivalency; hits give high values; active = above 10 nM dye equivalent; inconclusive = 1 to 10 nM; inactive = 1 nM or less; about half of its hits are not listed in these tables;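 further: highest value over a series up to 38 µM; compound alone in buffer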
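Readout is A488 dye-equivalent concentration, calibrated by a per-plate six-point Alexa 488 series. Compounds in 100 mM Tris buffer pH 8.0 were incubated 15 min at room temperature. Plates were imaged using 480 nm excitation/540 nm emission filters.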
A647 fluor: compound autofluorescence in A647 spectral region; Compound fluorescence, A647 channel (570/671 nm), Tris buffer; max dye-equivalent concentration, M; 59,000 tested, under 10 active; active means above 1 µM dye equivalent; inconclusive means 0.1 to 1 µM; inactive means 0.1 µM or less;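 further: values scaled relative to a standard on each plate; highest value over a series up to 38 µM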
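Each compound's intrinsic fluorescence at 570 nm excitation and 671 nm emission is measured across its concentration series in 100 mM Tris, pH 8.0, after 15 min at room temperature, and reported relative to an A647 curve.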
AID923: qHTS Assay for Allosteric/Competitive Inhibitors of Caspase-1: Spectroscopic Profiling in AFC Spectral Region | compound fluorescence, AFC spectral region (405/520 nm); almost no hit is shown here | Potency, µM (top dose mostly 57.5 µM), for the others: at the highest dose fluorescence increase, most hits filed as activators | hit rate 1.1% among 75,000 | AID 923, 2007; active means well fitted activation curve with a large enough effect; inconclusive means small, poorly fitted or top-dose-only effect;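 further: potency means the concentration at half of the fitted maximal effect; 0% is about no effect; scaled to a free AFC standard on each plate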
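Titrations up to 57 uM read every 20 sec for 3 min (405/520 nm) with 50 nM caspase 1 and 5 uM Ac-WEHD-AFC, pH 7.5 HEPES buffer. Fluorescence-vs-time intercept gave baseline, scaled against on-plate AFC standard.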
* = called active by the depositor; i = inactive; ? = inconclusive; . = not tested or not shown; [ ] = dose if it differs, or a comment. These rows are one share of the data; rates above refer to the full screens.

nr	Compound	Resorufin autofl	TSHR agonist	A488 autofl	A647 fluor	AID923
1	CCN(CC)S(=O)(=O)c1ccc(Cl)c(C(=O)Oc2cccnc2)c1	i	.	i	3.4e-08	2.3%
2	Cc1ccc(C)c(N(CC(=O)NC2CCCCC2)C(=O)CCC(=O)Nc2ccccn2)c1	i	?	i	1.6e-08	-0.2%
3	C=CCSC1=C(C#N)C(c2ccccc2C)CC(=O)N1 (configuration not stated)	i	.	i	1e-09	1.5%
4	CC(c1ccccc1)C1C(C#N)=C(N)OC2=C1C(=O)CCC2 (configuration not stated)	.	-2%	.	.	-0.3%
5	COC(=O)c1ccc(S(=O)(=O)N2CCCCCC2)cc1	i	13%	i	1.6e-08	0.5%
6	CC(C)=CCC/C(C)=C/CO/N=C1/[C@H]2O[C@@H]2[C@@H](O)[C@H]2[C@H]1CCn1c(=O)n(-c3ccccc3)c(=O)n12	.	-3%[11.4 µM]	.	.	1.1%[11.5 µM]
7	COc1cc(C2C(C#N)=C(N)Oc3cc(C)oc(=O)c32)cc2c1OCO2 (configuration not stated)	i	1%	i	1.3e-08	-2.0%
8	Clc1cccc(-c2nn3c(Cn4cnc5ccccc54)nnc3s2)c1	i	.	i	1e-09	0.1%
9	Cc1cccc(S(=O)(=O)c2c(N)n(/N=C/c3cccnc3)c3nc4ccccc4nc23)c1	i	-4%	i	1e-09	-0.4%
10	O=C(Nc1ccccc1)c1ccc(Cc2nc3ccccc3[nH]2)cc1	.	-5%	.	.	1.5%
11	COCCNC(=O)C1c2cc(OC)c(OC)cc2C(=O)N(C)C1c1cccnc1 (configuration not stated)	i	-1%	i	2.4e-08	1.9%
12	COCCCN1C(=O)C(=O)/C(=C(/O)c2ccc(OC(C)C)c(C)c2)C1c1ccncc1 (configuration not stated)	i	1%	i	1e-09	1.9%
13	COc1ccccc1NC(=O)c1oc2ccccc2c1NC(=O)c1cc(OC)c(OC)c(OC)c1	i	6%	i	2.2e-08	1.1%
14	O=C1CC(c2cccc(Cl)c2)Cc2nc(N3CCN(c4ccccc4)CC3)ncc21 (configuration not stated)	i	?	i	8.7e-09	0.6%
15	Cc1nccc2[nH]c(=O)c(C(=O)NC3CCCCC3C)cc12 (configuration not stated)	i	.	i	2.8e-08	0.6%
16	Cc1nc2cc(C(=O)OCC(=O)N(CC(C)C)C3CCS(=O)(=O)C3)ccc2n1-c1ccccc1 (configuration not stated)	i	14%	i	1.5e-09	1.1%
17	CC(C)N(Cc1nc(-c2ccc(Cl)cc2)no1)C(=O)CN(C)S(=O)(=O)c1ccc(Cl)cc1	i	-8%	i	1e-09	-0.5%
18	CCN(CC)Cc1cc(Nc2ccnc3cc(Cl)ccc23)ccc1O	i	-17%[25.6 µM]	i	3.9e-08	-3.2%[25.7 µM]
19	CC(C)N1C(=O)c2ccc(C(=O)O)cc2C1=O	i	-1%	i	1e-09	-0.4%
20	COCCNC(=O)C(c1ccc(Cl)cc1)N(C(=O)CCC(=O)Nc1ccccn1)C1CCCC1 (configuration not stated)	i	15%	i	2.2e-08	-0.1%

Molecules shown so far with a halogen:
nr	Compound	Resorufin autofl	TSHR agonist	A488 autofl	A647 fluor	AID923
1	CCN(CC)S(=O)(=O)c1ccc(Cl)c(C(=O)Oc2cccnc2)c1	i	.	i	3.4e-08	2.3%
8	Clc1cccc(-c2nn3c(Cn4cnc5ccccc54)nnc3s2)c1	i	.	i	1e-09	0.1%
14	O=C1CC(c2cccc(Cl)c2)Cc2nc(N3CCN(c4ccccc4)CC3)ncc21 (configuration not stated)	i	?	i	8.7e-09	0.6%
17	CC(C)N(Cc1nc(-c2ccc(Cl)cc2)no1)C(=O)CN(C)S(=O)(=O)c1ccc(Cl)cc1	i	-8%	i	1e-09	-0.5%
18	CCN(CC)Cc1cc(Nc2ccnc3cc(Cl)ccc23)ccc1O	i	-17%[25.6 µM]	i	3.9e-08	-3.2%[25.7 µM]
20	COCCNC(=O)C(c1ccc(Cl)cc1)N(C(=O)CCC(=O)Nc1ccccn1)C1CCCC1 (configuration not stated)	i	15%	i	2.2e-08	-0.1%

Remaining list, next part.
nr	Compound	Resorufin autofl	TSHR agonist	A488 autofl	A647 fluor	AID923
21	CCCC(=O)NC1C2CC3CC(C2)CC1C3 (configuration not stated)	i	1%	i	1e-09	4.7%
22	O=C(Nc1ccccc1)C1=C(N2CCOCC2)/C(=C/c2cccnc2)CC1	i	?	i	2.4e-08	10%
23	Cc1cc(C(=O)CSc2nc3ccc(Cl)cc3[nH]2)c(C)n1C	i	2%	i	1.5e-08	8.1%
24	O=C(c1csc2c1CCCCC2)N1CCN(c2ncccn2)CC1	i	-1%[11.4 µM]	i	3.1e-08	0.1%
25	Cc1ccc(NC(=O)CSc2nc3nc(C)cc(C)c3c(=O)[nH]2)cc1	i	.	i	3.7e-09	-1.4%
26	CCCOc1cc(C)c(S(=O)(=O)NCCOC)cc1C	i	9%	i	1e-09	-1.5%
27	CCCOc1ccc(NC(=O)C2CC(=O)N3CCCN=C3S2)cc1 (configuration not stated)	i	?	i	2.4e-09	1.6%
28	Cc1ccccc1S(=O)(=O)Cc1ccc(C(=O)NCc2cccnc2)o1	i	?	i	7.8e-09	3.9%
29	CCn1c(CSc2nncn2-c2ccc(OC)cc2)nc2cc(S(=O)(=O)N(C)C)ccc21	i	10%	i	1.8e-08	1.5%
30	Cc1nc(NC(=O)CSc2nc3cccnc3n2Cc2ccccc2)sc1C	i	0%[11.4 µM]	i	2.3e-09	0.7%
31	COc1ccc(CCNS(=O)(=O)c2ccc3c(c2)CCN3C(=O)C2CC2)cc1OC	i	6%	i	1.1e-08	-0.1%
32	O=C(Nc1nc(-c2ccc(Cl)s2)cs1)c1ccncc1	i	?	i	4e-08	1.5%
33	O=C(c1cnccn1)N1CCC2(CC1)CCN(c1ccccc1)CC2	i	0%	i	2e-08	0.7%
34	Cc1ccccc1NC(=O)CSc1nnc(-c2ccoc2C)n1CCc1ccccc1	i	10µM*	i	6.1e-08	0.0%
35	Cc1ccc(C(=O)C2=C(O)C(=O)N(Cc3ccccc3)C2c2cccnc2)o1 (configuration not stated)	i	13%	i	1.4e-08	1.7%
36	COC(=O)c1ccc(Nc2nc(C)cc(=O)[nH]2)cc1	i	?	i	1.3e-09	-0.6%
37	N#CC(C(=O)c1ccco1)c1ccccn1 (configuration not stated)	i	-2%	i	2.3e-08	1.0%
38	CCCC(=O)Nc1ccc(NC(=O)c2ccco2)c(OC)c1	i	6%	i	1.4e-08	0.8%
39	CCCNC(=O)Cn1cnc2sc(C(=O)NCCN(CC)CC)c(C)c2c1=O	i	1%	i	8.5e-09	-0.7%
40	CCOC(=O)NC1(NCc2ccccc2)Oc2ccccc2O1	i	-2%	i	1.3e-08	0.5%
41	O=C(O)C1CCCCC1C(=O)Nc1ccc(Cl)cc1Cl (configuration not stated)	i	7%	i	2.1e-08	1.7%
42	Cn1nc(CC(=O)Nc2cccnc2N2CCOCC2)c2ccccc2c1=O	i	4%	i	1e-09	0.0%
43	COc1cc2c(cc1OC)CN(C(=O)NS(=O)(=O)c1ccc(C)cc1)CC2	i	0%	i	3.4e-08	6.1%
44	COc1ncnc2sc3c(c12)CCCC3	.	8%	.	.	1.4%
45	O=C(Oc1cccc2c(O)cccc12)c1ccccc1	i	-5%	i	1e-09	-2.2%
46	O=C(NC1CCCCC1)C1CN(S(=O)(=O)c2ccccc2)CCN1S(=O)(=O)c1ccccc1 (configuration not stated)	i	-2%	i	9.1e-09	-0.6%
47	Clc1ccc(OCCN2CCN(c3ncnc4sccc34)CC2)cc1	i	?	i	1.7e-08	1.1%
48	Cc1cc(C)n2nc(CC(=O)NC3CCCC(C)C3C)nc2n1 (configuration not stated)	i	2%	i	2.4e-08	-1.0%
49	COC(=O)CSc1nc(C)c(C(C)=O)cc1C#N	i	.	i	5e-08	.
50	c1ccc(C2(Cn3ccc4ccccc43)OCCO2)cc1	.	?	.	.	-1.0%
51	Cc1cc(C(=O)NCCCN2CCOCC2)n(-c2ccccc2)n1	.	0%	.	.	-0.9%
52	Cc1ccccc1N(CC(N)=O)S(C)(=O)=O	.	5%[11.4 µM]	.	.	-0.8%
53	CCC(=O)Nc1cccc(-c2nc3ccccc3c(=O)o2)c1	i	5%	i	4.8e-08	-2.3%
54	O=C(Nc1ccccc1C(F)(F)F)c1cccnc1	i	-1%	i	3.8e-08	0.6%
55	O=C(Nc1cccc(C(F)(F)F)c1)c1cc(-c2cccs2)on1	i	-1%	i	1e-09	1.1%
56	CCOC(=O)C(C)Sc1nnc(Cc2cc(=O)[nH]c(=O)[nH]2)n1-c1ccc(Cl)cc1 (configuration not stated)	.	9%	.	.	-1.6%
57	Cn1cnc2cc(NC(=O)c3ccco3)ccc21	i	4%	i	5.5e-08	-1.8%
58	CCOC(=O)c1[nH]c2ccc(Br)cc2c1NC(=O)CCN1CCN(C(=O)OCC)CC1	i	.	i	1e-09	.
59	CCCN(CCC)S(=O)(=O)c1cc(Br)cc2c1N(C(=O)CC)CC2	i	?	i	2.8e-09	-0.8%
60	CCOC(=O)C1CCCN(CC(=O)Nc2c(C(=O)OC)[nH]c3ccc(Br)cc23)C1 (configuration not stated)	i	-2%	i	1.3e-08	-1.3%
61	CC(C)N(C)C	.	-7%	.	.	4.0%
62	COc1cccc(C2CC(c3ccc(C)cc3)Nc3nc(N)nn32)c1 (configuration not stated)	.	?	.	.	-2.3%
63	C(=N\c1c(-c2ccccc2)nc2n1CCS2)/c1ccccc1	.	-29%	.	.	-0.5%
64	O=S(=O)(NCC(c1cccnc1)N1CCN(Cc2ccccc2)CC1)c1ccccc1 (configuration not stated)	.	4%	.	.	3.0%
65	O=C(Cc1cscn1)c1ccc(O)cc1O	i	.	i	1e-09	.
66	Cn1c(=O)cc(SCC(=O)NCC2CCCO2)c2ccc(Cl)cc21 (configuration not stated)	i	7%[11.4 µM]	i	3.2e-08	1.7%
67	Cc1nonc1NC(=O)c1ccc(Cl)c(S(=O)(=O)N2CCCCC2)c1	i	?	i	1e-09	0.0%
68	CC1Cc2ccccc2N1C(=O)COc1cccc(-n2cnnn2)c1 (configuration not stated)	i	9%	i	1e-09	0.2%
69	CC(C)C[C@H](NC(=O)NCc1ccc(Cl)cc1)C(=O)O	i	5%	i	2.7e-08	1.7%
70	O=C1C(c2ccc(F)cc2)N(C2CCCCC2)C(=O)CN1C1CCCC1 (configuration not stated)	i	.	i	8.1e-09	0.5%
71	CCN(CC)S(=O)(=O)c1ccc2oc(C(=O)NCC3COc4ccccc4O3)c(C)c2c1 (configuration not stated)	i	?	i	1.5e-08	-1.5%
72	CCOC(=O)c1c(NC(=O)CSc2nnnn2-c2ccc3c(c2)OCCO3)sc(C)c1C	i	11%	i	2.9e-09	0.4%
73	O=C(c1noc2c1CCc1ccccc1-2)N1CCc2ccccc2C1	i	?	i	3.7e-08	-0.9%
74	COc1ccc(S(=O)(=O)Nc2ccc(S(=O)(=O)N3CCOCC3)cc2)cc1	.	0%	.	.	-0.5%
75	COC(=O)C1CCN(c2cc(=O)n(C3CCCCC3)c(=O)[nH]2)CC1	i	-8%	i	8.1e-09	-0.4%
76	Cc1cc(C)nc(NS(=O)(=O)c2ccc(NC(=O)CCN3C(=O)c4ccccc4C3=O)cc2)n1	.	-3%[11.4 µM]	.	.	0.2%
